# RanGTP-Imp inh: inhibitors of RanGTP-importin-beta interaction, primary screen, biochemical, FRET, CFP-Ran, YFP-importin-beta, homogeneous; cell-free CFP-Ran/YFP-importin-beta FRET ratio; AID 2216, 2009; 300,000 tested, 1.1% active; inhibition, % (no concentration beside the values); Ran GTPase (GTP-bound) - importin-beta complex;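 active = most replicates above 15%; inconclusive = exactly half above 15%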;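 note: 0% = DMSO wells and 100% = Ran loaded with GDP instead of GTP; wells of about 40 µL received 100 nL stock; the first replicate is given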
# UCH37 DUB inh: inhibitors of human UCH37 deubiquitinase, primary screen, biochemical, Ub-AMC cleavage, fluorescence. Ubiquitin carboxyl-terminal hydrolase isozyme L5 (Homo sapiens), Q9Y5K5. purified proteasome/UCH37. inhibition, % (concentration not given with the values). 330,000 tested, 0.33% active;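 active = mean of two replicates above 20%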;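 note: 0% = compound-free wells with enzyme and 100% = wells lacking proteasome; stock transfer was 100 nL into about 20 µL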
# Target sequence (Q9Y5K5 whole entry, looked up): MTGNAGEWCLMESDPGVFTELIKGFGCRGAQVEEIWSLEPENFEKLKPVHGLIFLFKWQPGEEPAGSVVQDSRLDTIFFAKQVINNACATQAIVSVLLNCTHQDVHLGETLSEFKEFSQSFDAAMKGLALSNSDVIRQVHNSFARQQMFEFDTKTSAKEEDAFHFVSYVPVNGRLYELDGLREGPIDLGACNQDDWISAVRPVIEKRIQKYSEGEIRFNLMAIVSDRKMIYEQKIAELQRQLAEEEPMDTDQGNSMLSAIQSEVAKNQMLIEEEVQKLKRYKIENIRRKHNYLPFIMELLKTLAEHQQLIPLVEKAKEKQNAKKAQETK
#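 Material: human UCH37 enzyme supplied as purified proteasome complex / Amount: 0.15 nM proteasome as dispensed / Buffer or medium: pH 7.4 Tris-HCl (50 mM) with ovalbumin, ATP-MgCl2, DTT / Times: preincubation 30 min, reaction 25 min, room temperature / Technique: AMC fluorescence from Ub-AMC cleavage, excitation 355 nm, emission 460 nm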
# A1 inh: caspase 3/7 activation in MEF A1-2A-BIM cells, primary screen, A1 inhibitor project, cell-based, luminescence, HTS | AID 2462, 2010 | caspase activation, % (concentration not given with the values) | 330,000 tested, 0.066% active | Caspase-Glo 3/7 luminescence, 3 h; percent of clofoctol response, vehicle zero;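 active = over half of replicate activation scores above 10%, or exactly half above 10 with the replicate mean above 10; inconclusive = replicate mean below 10 yet half the replicates above 10; inactive = over half of replicates below 10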;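 note: wells of about 30 µL received 50 nL stock; many hits fall short of the cut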
# T cruzi repl: inhibitors of intracellular T. cruzi growth, primary screen, luminescence, NIH3T3 host cells; T. cruzi beta-gal in NIH3T3, 90 h; inhibition, % (test concentration not listed); 300,000 tested, 1.4% active;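 active = mean inhibition across valid replicates above about 55%, limit read from the data; inconclusive = mean below that limit but half or more replicates reach it; inactive = mean below it, under half of replicates reach it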;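 note: signal also drops with host cell toxicity which is not excluded here; 0% = plate median of DMSO wells and 100% = zero luminescence signal; higher percent means less beta-gal luminescence so fewer parasites; stock transfer was 50 nL into about 50 µL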
# Calb FLC: C. albicans growth inhibition with fluconazole, primary screen, CaCi-2 strain, Alamar Blue fluorescence; C. albicans CaCi-2 (fluconazole-resistant clinical isolate) + fluconazole, 48 h; growth inhibition, % (no concentration beside the values); 300,000 tested, 0.57% active; AID 1979, 2009;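 active = most replicates above 75%; inconclusive = exactly half above 75%; inactive = most below 75%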;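 note: all wells also contain fluconazole at 8 µg/ml as a sub-toxic cotreatment; 0% = median of DMSO wells and 100% = median of geldanamycin control wells; wells of about 8 µL received 7.5 nL stock; the first replicate is given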
# Beta apoptosis: inhibitors of cytokine-induced beta cell apoptosis, primary screen, luminescence | 300,000 tested, 0.8% active | protection from apoptosis, % (no concentration beside the values) | INS-1E cytokine-induced death, ATP luminescence, 48 h; percent of positive-control rescue, neutral wells zero;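 active = all replicates at 75% or more, or half of them and the mean; inconclusive = half reach 75% but not the mean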;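 note: 0% = cytokine-treated negative control wells and 100% = positive control rescue; higher means more ATP so stronger rescue from cytokine killing; wells of about 40 µL received 100 nL stock; the first replicate is given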
# B2AR ag: beta2AR agonists driving receptor internalization, primary screen, cell-based, FAP fluorogen, flow cytometry | Beta-2 adrenergic receptor (Homo sapiens), P07550 | Am2.2-beta2AR cells; reference of the scale not given here | response, % (no concentration beside the values) | 340,000 tested, 0.43% active | AID 504454, 2011;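 active = response above a set limit, near 3 SD of response in nonfluorescent compounds, cut at about 42% in these data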;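 note: stock transfer was 100 nL into about 11 µL; a reference agonist was the positive control; negative values mostly stem from fluorescent compounds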
# Target sequence (P07550 whole entry, looked up): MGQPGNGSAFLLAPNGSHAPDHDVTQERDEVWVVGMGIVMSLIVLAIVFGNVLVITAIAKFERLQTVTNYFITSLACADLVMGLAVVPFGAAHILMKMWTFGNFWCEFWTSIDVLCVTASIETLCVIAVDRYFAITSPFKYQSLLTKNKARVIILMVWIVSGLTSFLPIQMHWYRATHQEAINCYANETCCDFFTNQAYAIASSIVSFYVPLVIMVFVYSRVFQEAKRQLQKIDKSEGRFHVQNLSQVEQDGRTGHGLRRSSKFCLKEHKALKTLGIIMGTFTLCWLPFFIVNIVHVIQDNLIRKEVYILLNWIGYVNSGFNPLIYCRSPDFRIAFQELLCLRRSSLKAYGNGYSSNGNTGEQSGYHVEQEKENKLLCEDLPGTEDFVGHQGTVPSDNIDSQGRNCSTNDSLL
# LANA-H2A inh: blockers of LANA interaction with H2A/H2B – biochemical, FP readout, HTS, primary screen; Protein LANA1 (Human herpesvirus 8 type P (isolate GK18)), Q9QR71; AID 2629, 2010; 320,000 tested, 0.6% active; inhibition, % (concentration not given with the values); cell-free LANA-H2A/H2B peptide, fluorescence polarization; in the data active = inhibition mostly above about 10%, no sharp cut-off; inactive = mostly below about 6.7%;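 note: stock transfer was 7.5 nL into about 10 µL; 0% = median of vehicle wells and 100% = median of positive control wells; one replicate is shown; the record names a cut of 25% in any replicate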
# Starred values were filed as active, the others as inactive; i = inactive; ? = inconclusive; . = not tested or not shown.
# Under each structure – RanGTP-Imp inh	UCH37 DUB inh	A1 inh	T cruzi repl	Calb FLC	Beta apoptosis	B2AR ag	LANA-H2A inh
> CCOC(=O)Cc1csc2nc(-c3ccccc3)nn12
  -2.1	6.2	1.0	-5	6	.	2	-2.1
> Cc1ccc(-c2noc(C3CCCN(C(=O)c4ccc(C(C)(C)C)cc4)C3)n2)o1 (stereo not given)
  -0.4	5.2	-0.6	19	23	4	-4	-0.5
> Cc1ccc(C)c(NC(=O)Cc2ccc(S(=O)(=O)N3CCCCC3)s2)c1
  -1.0	0.1	0.6	4	-37	-6	-14	-0.6
> CNC(=O)/C(C#N)=C/c1c(N2CCN(c3ccccc3)CC2)nc2c(C)cccn2c1=O
  19*	1.0	0.5	11	14	2	1	-2.4
> COc1cc(C)c(/C=C(\C#N)C(=O)Nc2ccc(C)cc2)cc1C(C)C
  9.9	-5.4	0.6	21	0	11	10	.
> C[C@H]1COC(=O)[C@@H](CC(=O)OC(C)(C)C)C/C=C\C[C@H](CC(=O)NCCO)C(=O)N1
  .	1.9	0.2	.	.	-8	-10	2.7
> CCC(=O)Nc1ccc(Oc2ccc(NC(=O)CC)c(NC(=O)CC)c2)cc1
  -9.3	1.4	-0.1	3	-15	-3	-4	-0.6
> O=C1CCC(C(=O)Nc2cccc(Br)c2)N1 (stereo not given)
  4.5	1.5	0.5	-3	-6	-4	8	2.3
> CCc1nc2ccc(C(=O)N3CCN(c4ccc([N+](=O)[O-])cc4)CC3)cc2nc1CC
  -1.9	3.4	0.6	18	11	0	7	2.0
> COC(=O)C1=C(C)N=c2s/c(=C/c3cccs3)c(=O)n2C1c1cccs1 (stereo not given)
  -4.2	.	0.9	2	2	-1	-1	-0.3
> CC(=O)N/C(=C\c1ccc(F)cc1)C(=O)NC(Cc1c[nH]c2ccccc12)C(=O)O (stereo not given)
  0.6	1.0	-1.6	-21	23	-2	2	4.0
> O=C(CSc1nc2c(sc3ccccc32)c(=O)n1CCCN1CCOCC1)NCC1CCCO1 (stereo not given)
  -0.6	4.1	-1.6	-2	2	1	-2	.
> COc1ccc(Nc2nc(N3CCOCC3)nc(N3CCOCC3)n2)cc1Cl
  1.5	-1.3	-0.7	30	-6	.	24	-0.7
> CCc1cc2c(=O)c(-c3ccc(F)cc3)c(C)oc2cc1OCC(=O)O
  5.0	0.7	0.2	2	-7	-4	-4	-4.4
> CN(C)/N=C/c1ccc(OC(=O)c2cccc([N+](=O)[O-])c2)cc1
  -3.1	.	-0.2	-12	-6	4	-6	-0.2
> O=C(CN1C(=O)NC2(CCCCC2)C1=O)Nc1cc(C(F)(F)F)ccc1N1CCCCC1
  6.0	-2.0	-0.2	21	-2	-7	3	3.5
> COc1ccc(OCC(=O)NNC(=O)Nc2cccc(Cl)c2)cc1
  -0.4	3.0	-0.6	7	31	-6	4	2.6
> C(=N\Nc1nc(N2CCOCC2)nc(N2CCOCC2)n1)/c1ccncc1
  3.8	.	0.7	-2	7	-5	13	7.3
> Cc1ccc(CSc2ncnc3c2cnn3Cc2ccccc2)cc1
  -5.9	0.9	-0.4	-6	-2	-1	0	-2.2
> COc1ccc(NC(=O)CSc2nnnn2-c2ccccc2OC)c(OC)c1
  -3.3	0.3	0.2	3	0	-4	0	-2.1
> C=CCn1c(C)nc2ccccc2c1=O
  -0.9	4.1	1.5	-18	-11	-2	0	-0.2
> Cc1cccc(-n2cnc3c(sc4nc(N5CCOCC5)c5c(c43)CCCC5)c2=O)c1
  -0.2	-48	0.4	10	-6	20	11	-4.6
> COc1ccc(OCCCC(=O)OCC(=O)Nc2c(C)nn(-c3ccccc3)c2C)cc1
  -1.1	-0.2	-0.4	-1	4	.	-6	-1.7
> CCN(CC)S(=O)(=O)c1ccc(OCC(=O)NCc2ccco2)cc1
  1.3	1.1	-0.4	3	0	-1	2	-2.6
> Cc1csc(Nc2ccccc2)[n+]1C
  0.9	3.6	0.7	-9	-20	.	2	-0.9
> Cc1nn(CC(=O)NCc2ccccc2)c(=O)c2cccn12
  4.6	2.6	-0.1	-12	14	.	4	5.5
> Cc1c(C2C(C#N)=C(N)OC3=C2C(=O)CCC3)cnn1C (stereo not given)
  3.4	0.1	-0.5	2	-1	-4	8	-9.1
> CSc1ncccc1C(=O)OCc1nc2ccsc2c(=O)[nH]1
  -5.6	-0.1	0.0	5	12	-2	12	-2.3
> CCc1ccc(CN2CCC(C(=O)Nc3ccc(Oc4ccccc4)nc3)CC2)o1
  -1.1	5.6	1.0	-17	-23	1	2	-1.7
> O=C(CCC(=O)Nc1ccccc1)NNC(=O)CCc1ccccc1
  ?	5.0	0.0	1	-11	.	-6	1.6

# Part of the list above, as labelled records:
COc1ccc(OCCCC(=O)OCC(=O)Nc2c(C)nn(-c3ccccc3)c2C)cc1
  RanGTP-Imp inh = -1.1
  UCH37 DUB inh = -0.2
  A1 inh = -0.4
  T cruzi repl = -1
  Calb FLC = 4
  Beta apoptosis = .
  B2AR ag = -6
  LANA-H2A inh = -1.7

COC(=O)C1=C(C)N=c2s/c(=C/c3cccs3)c(=O)n2C1c1cccs1 (stereo not given)
  RanGTP-Imp inh = -4.2
  UCH37 DUB inh = .
  A1 inh = 0.9
  T cruzi repl = 2
  Calb FLC = 2
  Beta apoptosis = -1
  B2AR ag = -1
  LANA-H2A inh = -0.3

# New compounds follow.
# Under each structure – RanGTP-Imp inh	UCH37 DUB inh	A1 inh	T cruzi repl	Calb FLC	Beta apoptosis	B2AR ag	LANA-H2A inh
> C/C(=N\Nc1ccc(S(=O)(=O)Nc2ccccc2)cc1[N+](=O)[O-])c1ccc(N2CCOCC2)cc1
  -4.6	.	-0.1	21	3	0	4	0.2
> c1ccc(-c2nc(-c3ccc(-c4ccon4)s3)no2)cc1
  0.7	-0.1	-5.6	11	-2	.	-7	0.7
> O=C(O)CSC12CC3CC(C1)CC(C(=O)O)(C3)C2
  0.0	-0.1	-0.3	-1	-2	4	5	-1.2
> CNc1oc(-c2ccccc2Cl)nc1C#N
  3.0	-12	-0.6	3	3	-1	-5	.
> COC(=O)c1cnn(C(=O)c2cc(OC)ccc2Br)c1N
  -3.7	0.7	1.3	-9	19	-7	0	1.1
> COc1cc(-c2nc(-c3ccc4c(c3)-c3ccccc3S4(=O)=O)c(-c3ccccc3)[nH]2)cc(OC)c1OC
  -6.6	-8.0	-0.4	59*	-5	26	18	-3.3
> COc1ccc(S(=O)(=O)Nc2cc(SCC(=O)O)c(O)c3ccccc23)cc1
  1.7	16	-0.5	4	60	94*	8	-2.0
> CC1CCCC(C)N1NC(=S)Nc1ccc(OC(F)F)cc1 (stereo not given)
  -2.0	0.4	1.2	-21	0	3	-8	-1.9
> O=C(/C=C/c1ccco1)NCC1COc2ccccc2O1 (stereo not given)
  -2.5	5.5	0.3	-1	-1	-2	-2	-0.7
> O=C(COc1coc(CN2CCCc3ccccc32)cc1=O)Nc1cccc([N+](=O)[O-])c1
  -20	0.7	1.6	-10	-13	.	6	-3.9
> O=C(Nc1ccc(S(=O)(=O)N2CCCC2)cc1)c1ccc([N+](=O)[O-])o1
  .	5.8	1.9	.	.	47	34	-0.9
> CCOC(=O)c1ccc(N=C2SC(C(=O)NC)CC(=O)N2CCc2ccccc2)cc1 (stereo not given)
  -0.8	0.9	-1.7	18	-9	-12	-7	3.2
> O=c1[nH]c(/C=C\c2cccnc2)c([N+](=O)[O-])c(=O)[nH]1
  7.9	0.6	-0.3	-10	-2	5	-6	-2.6
> CCc1ccc2oc(=O)cc(CN3CCOCC3)c2c1
  -1.7	1.3	0.6	-1	-4	-11	3	-0.5
> CCN(CC)c1ccc(/C=N/NC(=O)c2cnccn2)c(O)c1
  -2.2	.	-0.5	49	-9	101*	23	-2.2
> Cc1ccc(NS(=O)(=O)c2ccc3c(c2)NC(=O)CC(=O)N3)cc1C
  3.3	5.2	0.8	-10	-9	2	-3	7.3
> COc1cccc(C2CC(c3ccccc3C)n3nc(N)nc3N2)c1 (stereo not given)
  5.9	0.2	0.1	18	5	3	1	-0.4
> CCC1CCCCN1C(=O)NC(=O)c1ccccc1 (stereo not given)
  -0.3	3.2	0.5	-24	0	1	-2	3.9
> N#Cc1c(N2CCCC(O)C2)nc(N)c2c(N)nc3c(c12)CC(=O)N3C12CC3CC(CC(C3)C1)C2 (stereo not given)
  -3.3	-57	0.9	-1	-2	13	-24	0.5
> C=CCNc1nc(C(=O)OCC(=O)c2ccc(C)c([N+](=O)[O-])c2)cs1
  -0.1	1.9	0.9	-20	13	-2	-3	0.3
> O=C1CCC2(CC1)NC(=O)N(c1ccccc1)N2
  ?	-0.5	0.1	4	?	-1	1	2.8
> CC(=O)Nc1ccc(OC(=O)c2cccs2)cc1
  0.7	-1.6	-0.1	1	3	-7	9	-1.3
> CCCN(CC(=O)Nc1ccccc1C)C(=O)c1ccc(=O)n(Cc2ccccc2)n1
  ?	.	1.9	-5	-1	-2	-3	-3.0
> Cc1ccc(C)c(Cn2nnc3c(=O)[nH]c(C4CCCN(C(=O)C5CCCCC5)C4)nc32)c1 (stereo not given)
  6.1	1.3	0.0	25	-7	-4	-2	6.8
> CCN(CC(=O)Nc1c(F)cccc1F)C(=O)c1cc2c(cc1Cl)N1CCCCCC1=NS2(=O)=O
  3.7	0.0	-0.3	-5	-1	-3	2	-18
> COC(=O)C1=C(C)NC(=O)CC1c1ccc(F)c(Br)c1 (stereo not given)
  0.5	0.2	0.9	.	26	-4	-1	-1.5
> CCC1(CC)Cc2ccccc2-c2nc(NCCO)[nH]c(=O)c21
  3.4	i	0.4	3	-6	-11	3	-4.5
> C=CCOc1ccc(/C=C/C(=O)OCC(=O)NCC2CCCCC2)cc1
  -2.0	-1.6	-0.5	-3	-8	-1	-4	i
> c1coc(CNc2c3c(nc4ccccc24)CCC3)c1
  79*	0.1	0.3	69*	5	.	-97	0.2
> COc1ccc(N2CCCC2)c(NC(=O)c2ccc(Br)o2)c1
  2.5	2.7	0.1	8	-9	-3	-4	-20
> Clc1cccc(Cl)c1-c1noc(-c2ccno2)n1
  -2.5	3.7	?	1	10	-6	-11	0.3
> O=C(Nc1ccc(Cl)cc1)NC1CCCc2ccccc21 (stereo not given)
  1.8	1.6	-0.4	2	-3	7	3	0.9
> CCCCCCCCCCCCOC(=O)C[N+](C)(C)C
  1.5	0.5	0.1	.	-5	15	-3	3.8

# Hits appear at their usual frequency; 4.3% or so of the library scored in one or more.
